Assay outcomes (PubChem)
GLA inh pH 4.5 – inhibitors of human alpha-galactosidase A at pH 4.5; AID 1467; 230,000 tested, under 10 active; purified enzyme, 4-MU-alpha-Gal fluorescence, pH 4.5; activity change, negative = inhibition, % at 105 µM; inconclusive = small, poorly fitted or top-dose-only inhibition, or a rising curve; inactive = flat fitted curve, though single readings scatter; no compound was filed as active;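 also: 0% = full activity with enzyme and -100% = basal without enzyme; dose as in the result columns while the protocol names 77 µM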
miR-21 FLuc – miR-21 reporter, rising signal; HeLa miR-21 FLuc reporter, luciferase, 48 h; 340,000 tested, under 10 active; Potency, µM (series often up to 38.3 µM), for the others: at the highest dose reporter change, positive = more light; active = well fitted rising curve with a large enough effect; inconclusive = small, poorly fitted or top-dose-only effect; inactive = no such curve, though single readings can be large or run the other way;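 also: % of control where 0% means no effect; miR-21 action dims this reporter so a rising signal means less miR-21 action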
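Luminescence from a firefly luciferase reporter carrying a miR-21 binding site downstream, stably expressed under a CMV promoter in HeLa cells that make miR-21 endogenously, reports miRNA modulation after 48 h compound exposure up to approximately 40uM final.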
Rango release inh – prevents RanGTP from dissociating the Rango-importin beta complex; Biochemical FRET Rango-importin beta, RanGTP-induced dissociation; Potency, µM (top dose mostly 46.1 µM), for inactives: top-dose activity change, negative = inhibition; AID 540253; O95149+P62826; 0.071% of 340,000 active; active means falling FRET ratio curve, often poorly fitted, with flat reads before Ran was added; inconclusive means other falling curves, or compound fluorescence or quenching; inactive means flat or rising ratio curve;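 also: potency is read from the fitted curve at half-maximal effect; % of control where 0% means no effect; nearly all actives have a fitted effect of over 45% in size; -100% = wells without RanGTP and RCC1; the record marks most hits as doubtful in a second field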
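Rango/importin beta premix (0.1/0.25 uM final), PBS + 1 mM DTT + 0.02% Tween-20 + 0.1% BSA; cpd 5 min RT; FRET pre-read; + RanGTP-RCC1 (0.6 uM Ran, 2 mM GTP, 0.2 uM RCC1); 45 min RT; FRET post-read, ex 430, em 486/530 nm.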
Rango-impB inh – Rango-importin beta binding inhibition; Q14974; Rango CFP/YFP FRET sensor + importin beta, 45 min; Potency, µM (top dose mostly 92.2 µM), for the others: at the top dose inhibition of complex formation; 0.031% of 340,000 active; AID 540263; active = rising FRET ratio curve, often small or poorly fitted; inconclusive = mostly compound fluorescence or quenching in the first reads; inactive = flat curves in all reads;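 also: potency is read from the fitted curve at half-maximal effect; 0% = DMSO wells and 100% = buffer wells lacking importin beta; nearly all actives have a fitted effect of over 15% in size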
Target sequence (Q14974 whole entry, looked up): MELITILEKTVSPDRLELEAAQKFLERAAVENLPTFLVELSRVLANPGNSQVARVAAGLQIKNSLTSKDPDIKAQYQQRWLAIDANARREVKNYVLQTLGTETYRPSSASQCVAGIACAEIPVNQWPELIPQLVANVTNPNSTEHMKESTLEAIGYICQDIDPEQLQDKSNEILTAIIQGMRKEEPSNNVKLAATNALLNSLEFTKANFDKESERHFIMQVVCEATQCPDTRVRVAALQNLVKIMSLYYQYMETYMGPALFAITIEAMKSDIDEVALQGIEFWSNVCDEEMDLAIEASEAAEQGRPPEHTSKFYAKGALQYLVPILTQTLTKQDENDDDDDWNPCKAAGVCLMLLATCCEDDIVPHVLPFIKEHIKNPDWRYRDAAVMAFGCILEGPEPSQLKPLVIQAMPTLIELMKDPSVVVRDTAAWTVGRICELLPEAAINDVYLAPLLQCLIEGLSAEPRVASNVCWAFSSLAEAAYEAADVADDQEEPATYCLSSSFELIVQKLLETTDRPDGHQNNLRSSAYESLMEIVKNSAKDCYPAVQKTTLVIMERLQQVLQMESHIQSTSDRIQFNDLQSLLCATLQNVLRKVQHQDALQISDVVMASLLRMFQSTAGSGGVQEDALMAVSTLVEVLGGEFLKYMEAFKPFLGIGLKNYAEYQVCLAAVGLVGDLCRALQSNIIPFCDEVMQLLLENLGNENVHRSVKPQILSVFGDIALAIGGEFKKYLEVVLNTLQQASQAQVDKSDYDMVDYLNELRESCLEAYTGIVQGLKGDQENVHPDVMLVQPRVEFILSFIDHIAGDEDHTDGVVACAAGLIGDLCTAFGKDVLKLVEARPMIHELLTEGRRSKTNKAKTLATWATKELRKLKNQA
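FRET biosensor (snurportin 1 IBB flanked by EYFP and cerulean), 50 nM, with compound 5 min, then 0.125 microM importin beta in PBS, 1 mM DTT, 0.02% Tween-20, 0.1% BSA. CFP/YFP ratio read after 45 min at room temperature; pre-read flags interference.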
Numbers without * were called inactive; & = joins results of further samples; [ ] = another dose, or the depositor's remark. This is a subset (hit frequency here may not be typical).

How did c1ccc2oc(C3=NNC(=NC4CC4)SC3)cc2c1 do in these assays?
GLA inh pH 4.5: -17; miR-21 FLuc: 3%; Rango release inh: -16%; Rango-impB inh: 1.0%

How did O=C(COc1ccccc1-c1ccccc1)N/N=C/c1ccncc1 do in these assays?
GLA inh pH 4.5: -4; miR-21 FLuc: 6%; Rango release inh: 21%; Rango-impB inh: -2.6%

What do the screens show for `O=C(/C=C/c1cccs1)N1CCN(c2ccc(F)cc2)CC1`?
GLA inh pH 4.5: -2; miR-21 FLuc: -7%; Rango release inh: 1%; Rango-impB inh: -2.5%

How did O=C1CC(/C=C/c2ccccc2)=Nc2ccccc2N1 do in these assays?
GLA inh pH 4.5: -1; miR-21 FLuc: -9%; Rango release inh: -8%; Rango-impB inh: inconclusive

Results for Cn1cccc1CNCc1ccc(F)cc1 ?
GLA inh pH 4.5: 6; miR-21 FLuc: -8%; Rango release inh: -13%; Rango-impB inh: -0.1%

Results for O=C(COC(=O)/C=C/c1cccc(C(F)(F)F)c1)NCc1ccccc1 ?
GLA inh pH 4.5: -1; miR-21 FLuc: -6%; Rango release inh: -8%; Rango-impB inh: 2.7%

How did O=C(Cc1ccccc1F)OCN1C(=O)c2ccccc2C1=O do in these assays?
miR-21 FLuc: -2%; Rango release inh: -7%; Rango-impB inh: -0.7%

How did O=C(O)c1nccnc1C(=O)NCc1csc2ccc(Cl)cc12 do in these assays?
GLA inh pH 4.5: 0; miR-21 FLuc: -7%; Rango release inh: 0%; Rango-impB inh: 0.2%

Results for CC(=O)c1ccc(NC(=O)N[C@@H](CC(C)C)C(=O)O)cc1 ?
GLA inh pH 4.5: -10; miR-21 FLuc: -2%; Rango release inh: 6%; Rango-impB inh: -0.2%

What do the screens show for `COc1ccc(C)cc1NC(=O)CCCN1C(=O)NC(C)(C)C1=O`?
Rango release inh: 9%; Rango-impB inh: -0.2%

How did CCCS(=O)(=O)c1ccc(COC(=O)c2ccc(NC(C)=O)cc2)cc1 do in these assays?
GLA inh pH 4.5: 1; miR-21 FLuc: -1%; Rango release inh: 15%; Rango-impB inh: -0.6%

What do the screens show for `O=C(c1cc2ccccc2oc1=O)N1CCN(c2ccccn2)CC1`?
GLA inh pH 4.5: -24; miR-21 FLuc: -1%; Rango release inh: 1%; Rango-impB inh: 0.6%

What do the screens show for `O=C(NCc1ccc2c(c1)OCO2)c1ccc(CS(=O)Cc2cccc(Cl)c2)o1` (stereo not drawn)?
miR-21 FLuc: 11%; Rango release inh: 19%; Rango-impB inh: -2.1%

Results for CCCc1cc(=O)oc2c3c(cc(OCC(=O)N[C@@H](C)C(=O)O)c12)OC(C)(C)CC3 ?
miR-21 FLuc: 0%; Rango release inh: 8%; Rango-impB inh: -2.7%

What do the screens show for `CN1CCN(C(=O)CCN2C(=O)/C(=C\c3ccccc3F)SC2=S)CC1`?
miR-21 FLuc: 24%; Rango release inh: -13%; Rango-impB inh: 3.0%

Results for O=c1c(O)c(-c2ccccc2)oc2ccccc12 ?
GLA inh pH 4.5: -3; Rango release inh: inconclusive; Rango-impB inh: inconclusive

Results for Clc1ccc2c(c1)-c1[nH]ncc1CS2 ?
GLA inh pH 4.5: 1; miR-21 FLuc: -15%; Rango release inh: -2%; Rango-impB inh: 0.4%

What do the screens show for `Cc1ccc(-c2cc(Cc3ccccn3)c(=O)[nH]n2)cc1`?
GLA inh pH 4.5: 12; miR-21 FLuc: -2%; Rango release inh: 14%; Rango-impB inh: -1.3%

What do the screens show for `C=CCn1c(=S)[nH]c2nc3c(cc2c1=O)CCCC3`?
GLA inh pH 4.5: 1; miR-21 FLuc: -30%; Rango release inh: -13%; Rango-impB inh: 2.1%

What do the screens show for `CC(=O)NN1C(=O)c2ccccc2NC1c1ccco1` (stereo not drawn)?
GLA inh pH 4.5: 9; miR-21 FLuc: -2%; Rango release inh: 1%; Rango-impB inh: 0.5%

Results for O=C(CCc1ccc(S(=O)(=O)NCCc2ccccc2)cc1)N1CCN(Cc2ccc3c(c2)OCO3)CC1 ?
GLA inh pH 4.5: 0; miR-21 FLuc: inconclusive

Results for Cc1ccc(/C=C/C(=O)O)cc1S(=O)(=O)N(CCO)CCO ?
GLA inh pH 4.5: 14; miR-21 FLuc: -3%; Rango release inh: 10%; Rango-impB inh: 4.9%

How did COC(=O)c1sc2ccccc2c1-n1cccc1C(=O)C(=O)Nc1ccccc1 do in these assays?
GLA inh pH 4.5: -3; miR-21 FLuc: 1%; Rango release inh: -2%; Rango-impB inh: -1.6%

Results for Cc1cc(NC(=O)c2ccccc2C)no1 ?
miR-21 FLuc: -40%; Rango release inh: 12%; Rango-impB inh: -0.5%

What do the screens show for `COc1ccc(S(=O)(=O)Nc2ccc(-c3ccc4nncn4n3)cc2)c(OC)c1`?
Rango release inh: 3%; Rango-impB inh: 1.2%

Results for FC(F)Sc1ccc(NC(=S)NC(c2ccccc2)c2ccccc2)cc1 ?
GLA inh pH 4.5: -7; miR-21 FLuc: inconclusive; Rango release inh: 0%; Rango-impB inh: -3.2%

Results for Cc1cccc(C)c1NC(=O)CNC(=O)CCCN1C(=O)c2cccc3cccc(c23)C1=O ?
Rango release inh: -3%; Rango-impB inh: -3.5%

What do the screens show for `CSCCC(=O)Nc1nc(-c2ccccn2)cs1`?
GLA inh pH 4.5: -8; miR-21 FLuc: -4%; Rango release inh: -6%; Rango-impB inh: inconclusive

What do the screens show for `NC(=O)c1ccc(SCC(=O)OCC(=O)N2CCCC2=O)c([N+](=O)[O-])c1`?
Rango release inh: -5%; Rango-impB inh: 0.5%

Results for COc1ccc(CNS(=O)(=O)NCc2ccc(OC)c(OC)c2)cc1 ?
GLA inh pH 4.5: 3; miR-21 FLuc: 2%; Rango release inh: 5%; Rango-impB inh: -5.3%

What do the screens show for `COCCCNC(=O)CSc1nc2cc(S(=O)(=O)N3CCCCC3)ccc2o1`?
Rango release inh: 8%; Rango-impB inh: -0.1%

How did COc1ccc(Cn2c(-c3ccc(OC)c(O)c3)nc3ccccc32)cc1O do in these assays?
GLA inh pH 4.5: 3; miR-21 FLuc: -21%; Rango release inh: 14%; Rango-impB inh: 4.5%

Results for Cc1c2ccccc2nc2c(F)c(NCCO)c(F)c(F)c12 ?
GLA inh pH 4.5: 2; miR-21 FLuc: -15%; Rango release inh: inconclusive; Rango-impB inh: inconclusive

What do the screens show for `Cc1cc(NC(=O)CSc2n[nH]c(N)n2)no1`?
GLA inh pH 4.5: -8; miR-21 FLuc: 0%; Rango release inh: 24%; Rango-impB inh: -1.0%

Results for Cc1n[nH]c(=O)nc1NC1CCCCC1 ?
GLA inh pH 4.5: -5; miR-21 FLuc: -8%; Rango release inh: 10%; Rango-impB inh: 0.6%

Results for Cc1ccccc1Nc1nc(N)nc(COC(=O)c2ccco2)n1 ?
Rango release inh: 2%; Rango-impB inh: -2.1%

Looked up one by one from above (three):
What do the screens show for `Cc1cc(NC(=O)CSc2n[nH]c(N)n2)no1`?
GLA inh pH 4.5: -8; miR-21 FLuc: 0%; Rango release inh: 24%; Rango-impB inh: -1.0%

What do the screens show for `COCCCNC(=O)CSc1nc2cc(S(=O)(=O)N3CCCCC3)ccc2o1`?
Rango release inh: 8%; Rango-impB inh: -0.1%

Results for Cc1n[nH]c(=O)nc1NC1CCCCC1 ?
GLA inh pH 4.5: -5; miR-21 FLuc: -8%; Rango release inh: 10%; Rango-impB inh: 0.6%

The listing picks up, repeating the 5 entries before the break.
How did COc1ccc(Cn2c(-c3ccc(OC)c(O)c3)nc3ccccc32)cc1O do in these assays?
GLA inh pH 4.5: 3; miR-21 FLuc: -21%; Rango release inh: 14%; Rango-impB inh: 4.5%

Results for Cc1c2ccccc2nc2c(F)c(NCCO)c(F)c(F)c12 ?
GLA inh pH 4.5: 2; miR-21 FLuc: -15%; Rango release inh: inconclusive; Rango-impB inh: inconclusive

What do the screens show for `Cc1cc(NC(=O)CSc2n[nH]c(N)n2)no1`?
GLA inh pH 4.5: -8; miR-21 FLuc: 0%; Rango release inh: 24%; Rango-impB inh: -1.0%

Results for Cc1n[nH]c(=O)nc1NC1CCCCC1 ?
GLA inh pH 4.5: -5; miR-21 FLuc: -8%; Rango release inh: 10%; Rango-impB inh: 0.6%

Results for Cc1ccccc1Nc1nc(N)nc(COC(=O)c2ccco2)n1 ?
Rango release inh: 2%; Rango-impB inh: -2.1%

What do the screens show for `COc1cccc(CNC(=O)CCNC(=O)C2CCN(S(=O)(=O)c3ccccc3)CC2)c1`?
miR-21 FLuc: -2%; Rango release inh: -4%; Rango-impB inh: -1.5%

What do the screens show for `CN(C)S(=O)(=O)c1ccc(S(=O)(=O)Nc2ccc3c(c2)oc2ccccc23)cc1`?
GLA inh pH 4.5: 0; miR-21 FLuc: -9%; Rango release inh: -8%; Rango-impB inh: 1.1%

Results for COc1cc2nc(N3CCN(C(=O)[C@@H]4CCCO4)CC3)nc(N)c2cc1OC ?
GLA inh pH 4.5: -12; miR-21 FLuc: -9%; Rango release inh: 2%; Rango-impB inh: 9.8%

Results for CCC1CCCCN1CCCNC(=O)c1c(O)nc2ccccn2c1=O (stereo not drawn) ?
miR-21 FLuc: -3%&2%; Rango release inh: -1%; Rango-impB inh: -1.1%

What do the screens show for `C#CCSc1nncn1C(=O)/C=C/c1ccccc1`?
GLA inh pH 4.5: -5; miR-21 FLuc: -7%; Rango release inh: 9%; Rango-impB inh: -2.2%

What do the screens show for `CC1CCc2nc3ccc(S(=O)(=O)N4CCC(C(=O)N5CCCCC5)CC4)cc3c(C(=O)O)c2C1` (stereo not drawn)?
GLA inh pH 4.5: 1; miR-21 FLuc: -4%; Rango release inh: -12%; Rango-impB inh: 0.5%

What do the screens show for `COc1ccc(CN(C(=O)c2ccco2)C2CCS(=O)(=O)C2)cc1` (stereo not drawn)?
miR-21 FLuc: -1%; Rango release inh: 13%; Rango-impB inh: -1.6%

What do the screens show for `Cc1c(NC(=S)NC(=O)c2ccccc2Br)c(=O)n(-c2ccccc2)n1C`?
miR-21 FLuc: 3%; Rango release inh: -20%; Rango-impB inh: -5.5%

What do the screens show for `CCOCCNC(=O)c1ccccc1C(=O)NCCOCC`?
GLA inh pH 4.5: 7; miR-21 FLuc: -5%; Rango release inh: 12%; Rango-impB inh: -2.7%

What do the screens show for `O=c1[nH]c2cc([N+](=O)[O-])ccc2c2ccc([N+](=O)[O-])cc12`?
Rango release inh: -12%; Rango-impB inh: 3.4%

How did CC1CN(CCN2CC(C)N(C=O)CC2C)C(C)CN1C=O (stereo not drawn) do in these assays?
Rango release inh: 5%; Rango-impB inh: -0.8%

What do the screens show for `COc1ccc(C(C)=O)cc1COC(=O)c1ccc2c(c1)OCCO2`?
Rango release inh: -8%; Rango-impB inh: 1.1%

Results for COc1cccc(-n2c([S-])c(C(=O)Nc3ccc(C(F)(F)F)cc3)[n+]3ccccc23)c1 ?
GLA inh pH 4.5: -15; miR-21 FLuc: -1%

How did CCCc1c(C)c2cccc(C)c2[nH]c1=O do in these assays?
GLA inh pH 4.5: -6; miR-21 FLuc: -6%; Rango release inh: 10%; Rango-impB inh: 1.9%

Results for CCN1CCN(C(=O)CSc2ccc(C)cc2)CC1 ?
miR-21 FLuc: -31%; Rango release inh: -7%; Rango-impB inh: -2.2%

What do the screens show for `CC(C)c1onc(C(=O)Nc2sc3c(c2C#N)CCC3)c1[N+](=O)[O-]`?
GLA inh pH 4.5: 2[21.1 µM]; miR-21 FLuc: -4%; Rango release inh: 1%; Rango-impB inh: -0.7%

Results for Cc1cccc(NC(=O)c2cnc3ccccn3c2=O)c1 ?
GLA inh pH 4.5: 7; miR-21 FLuc: -52%; Rango release inh: 5%; Rango-impB inh: -0.1%

How did CNc1nc(CCN2C(=O)c3ccccc3C2=O)cs1 do in these assays?
GLA inh pH 4.5: -8; miR-21 FLuc: -2%; Rango release inh: 0%; Rango-impB inh: 4.4%
